LYPLA1 counter: LYPLA1 inhibitors, primary screen, counter-screen for PME1 inhibitor project, biochemical, fluorescence polarization, FP-Rh probe ABPP; inhibition, % at 5.9 µM; 320,000 compounds, 0.16% hits; AID 2174, 2009; recombinant LYPLA1;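 active = inhibition above the mean of all tested compounds plus 3 SD, set per campaign, cut at about 14% in these data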;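 also: inhibitors block serine hydrolase probe labeling of LYPLA1 so polarization falls; 0% = enzyme with DMSO and 100% = wells lacking LYPLA1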
Target sequence (O75608 whole entry, looked up): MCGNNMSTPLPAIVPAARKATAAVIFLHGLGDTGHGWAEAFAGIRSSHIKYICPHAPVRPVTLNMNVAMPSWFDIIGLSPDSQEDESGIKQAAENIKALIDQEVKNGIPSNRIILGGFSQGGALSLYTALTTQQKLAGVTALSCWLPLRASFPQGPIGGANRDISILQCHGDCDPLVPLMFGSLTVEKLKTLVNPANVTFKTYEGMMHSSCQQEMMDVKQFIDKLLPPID
PREPL inhibitor: PREPL enzyme inhibitors, primary screen, biochemical, fluorescence polarization | inhibition, % at 5.96 µM | recombinant PREPL, fluorescence polarization activity-based probe | 320,000 compounds, 0.68% hits | AID 2751, 2010; in the data active = inhibition above about 43%;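 also: 0% = enzyme with DMSO and 100% = wells lacking enzyme; many of its hits are not listed in these tables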
Target sequence (Q4J6C6 whole entry, looked up): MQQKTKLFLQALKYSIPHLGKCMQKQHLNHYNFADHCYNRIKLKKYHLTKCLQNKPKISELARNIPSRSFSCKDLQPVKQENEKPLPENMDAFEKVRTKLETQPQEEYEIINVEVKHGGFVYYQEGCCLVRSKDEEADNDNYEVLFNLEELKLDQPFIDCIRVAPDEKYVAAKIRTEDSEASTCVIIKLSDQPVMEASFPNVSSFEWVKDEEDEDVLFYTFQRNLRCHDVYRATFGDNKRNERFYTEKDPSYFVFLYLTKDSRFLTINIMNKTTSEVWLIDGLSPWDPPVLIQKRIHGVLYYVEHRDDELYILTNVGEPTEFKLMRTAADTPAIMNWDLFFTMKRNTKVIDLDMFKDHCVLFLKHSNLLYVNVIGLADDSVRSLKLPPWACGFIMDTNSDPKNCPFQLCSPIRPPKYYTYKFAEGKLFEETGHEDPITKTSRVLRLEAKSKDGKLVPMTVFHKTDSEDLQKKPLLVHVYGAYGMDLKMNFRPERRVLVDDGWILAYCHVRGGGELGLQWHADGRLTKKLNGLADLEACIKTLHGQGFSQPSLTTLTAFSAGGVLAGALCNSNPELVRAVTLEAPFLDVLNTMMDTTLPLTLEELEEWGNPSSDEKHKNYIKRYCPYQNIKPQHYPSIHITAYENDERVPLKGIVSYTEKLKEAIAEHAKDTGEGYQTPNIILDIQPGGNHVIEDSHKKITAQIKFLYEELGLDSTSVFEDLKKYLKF
PAD4 inh: human PAD4 inhibitors, primary screen, biochemical, fluorescence polarization, 1536-well format; 330,000 compounds, 0.41% hits; Protein-arginine deiminase type-4 (Homo sapiens), Q9UM07; recombinant PAD4, RCA probe fluorescence polarization; inhibition, % at 6.36 µM;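 active = percent inhibition above a cutoff equal to the mean of all tested compounds plus 3 SD, cut at about 15% in these data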;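 also: 0% = PAD4 with RCA probe and DMSO and 100% = probe without PAD4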
PAFAH1B2 inh: PAFAH1B2 enzyme inhibitors, primary screen, biochemical, fluorescence polarization, human | inhibition, % at 3.39 µM | Platelet-activating factor acetylhydrolase IB subunit alpha2 (Homo sapiens), P68402 | 340,000 compounds, 1.2% hits | recombinant PAFAH1B2, FP-rhodamine activity probe | AID 492953, 2010;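 active = inhibition above the mean of all tested compounds plus 3 SD, cut at about 24% in these data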;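 also: 0% = enzyme with DMSO and 100% = wells lacking PAFAH1B2; many of its hits are not listed in these tables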
PAFAH2 FP inh: PAFAH2 enzyme inhibitors, primary screen, biochemical, fluorescence polarization, human; Platelet-activating factor acetylhydrolase 2, cytoplasmic (Homo sapiens), Q99487; recombinant PAFAH2, FP-rhodamine activity probe; inhibition, % at 3.39 µM; 340,000 compounds, 0.99% hits; AID 492956, 2010;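 active = inhibition above the mean over all tested compounds plus 3 SD, cut at about 30% in these data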;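 also: inhibitors block probe labeling of enzyme so polarization drops; 0% = enzyme with DMSO and 100% = wells lacking PAFAH2 protein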
LYPLA2 inh: LYPLA2 inhibitors, primary screen, counter-screen for PME1 inhibitor project, biochemical, fluorescence polarization, FP-Rh probe ABPP. Acyl-protein thioesterase 2 (Homo sapiens), O95372. recombinant LYPLA2. inhibition, % at 5.9 µM. 320,000 compounds, 0.38% hits. AID 2177, 2009;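 active = inhibition above the screen-wide mean plus 3 SD, limit set per campaign, cut at about 26% in these data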;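 also: 0% = LYPLA2 with DMSO and 100% = wells lacking LYPLA2 enzyme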
PAFAH1B3 FP inh: PAFAH1B3 enzyme inhibitors, primary screen, biochemical, fluorescence polarization, human. Platelet-activating factor acetylhydrolase IB subunit alpha1 (Homo sapiens), Q15102. recombinant PAFAH1B3, FP-rhodamine probe. inhibition, % at 3.39 µM. 340,000 compounds, 0.28% hits. AID 492972, 2010;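 active = inhibition above the screen-wide average of all tested compounds plus 3 SD, cut at about 25% in these data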;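 also: 0% = enzyme with DMSO only and 100% = wells lacking PAFAH1B3 protein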
GSTO1 counter: inhibitors of recombinant GSTO1, primary screen, counter-screen for RBBP9 inhibitor project, biochemical, fluorescence polarization | AID 1974, 2009 | Glutathione S-transferase omega-1 (Homo sapiens), P78417 | activity-based probe fluorescence polarization | inhibition, % at 5.96 µM | 300,000 compounds, 1.1% hits;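 active = inhibition above the campaign mean inhibition plus 3 SD, cut at about 35% in these data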;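 also: 0% = GSTO1-1 with DMSO and 100% = wells lacking GSTO1-1 enzyme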
The depositor's hits bear a star; . = not tested or not shown.

SMILES | LYPLA1 counter | PREPL inhibitor | PAD4 inh | PAFAH1B2 inh | PAFAH2 FP inh | LYPLA2 inh | PAFAH1B3 FP inh | GSTO1 counter
COc1ccc(/C=C/C(=O)OCC(=O)NC2CCCCC2C)c(OC)c1 (stereo not drawn) | 1 | 8 | 2 | -2 | 88* | -2 | 0 | .
Cc1cccc(C(=O)OCC(=O)Nc2c(C)nn(-c3ccccc3)c2C)c1O | 3 | 11 | -4 | -3 | 2 | 9 | 1 | 0
N=C1C(c2nc3ccccc3s2)=C(O)CN1CCCO | 5 | 4 | -5 | 12 | 41* | 4 | 10 | 5
COc1ccc(NC(=O)c2cccc(S(=O)(=O)Nc3ccc(Br)cc3)c2)cn1 | -5 | -7 | -5 | 7 | -8 | -10 | -13 | -3
CCSc1nnc(NC(=O)CSc2nnc(Cc3cccn3C)n2-c2ccc(C)cc2)s1 | -2 | -1 | -1 | 1 | 4 | 1 | 4 | -4
O=C(COC(=O)c1ccccc1C(=O)c1ccccc1)Nc1ccc(SC(F)F)cc1 | -24 | -10 | 3 | 1 | 51* | -47 | 1 | 1
CCOC(=O)C1CCN(Cc2ccc(F)c(F)c2)CC1 | 3 | 1 | -1 | 0 | 6 | 3 | -5 | 3
CCCOc1ccc(N2C(=O)C3ON(c4ccccc4)C(CCC)C3C2=O)cc1 (stereo not drawn) | 0 | 7 | -3 | 4 | 1 | -2 | 5 | -5
CCCCC1=CC2=CC(=O)C(C)(OC(=O)CC)C(=O)C2=CO1 (stereo not drawn) | 0 | 5 | -11 | -3 | 8 | -2 | 2 | 18
C=CCn1c(SCc2c(C)noc2C)nc2cc(C(=O)O)ccc2c1=O | 6 | 2 | 3 | 8 | 5 | 8 | 3 | 3
COc1ccc(/C(C)=N\Nc2nc(-c3ccc(Cl)cc3)cc(C(F)(F)F)n2)cc1OC | -7 | -1 | -1 | -3 | -3 | 2 | 5 | -2
Cc1cc(C)c2cc(C(=O)N3CCC(Cc4ccccc4)CC3)[nH]c2c1 | -1 | 7 | 10 | 4 | 6 | -2 | 5 | 5
CN(C)c1ccc(C(=O)OCC(=O)NC2CCCCCC2)cc1 | 0 | 3 | -1 | 5 | 84* | -6 | 4 | 6
O=C(c1ccco1)N(CCC(c1ccccc1)c1ccco1)Cc1ccc(F)cc1 (stereo not drawn) | -4 | -2 | 0 | 2 | 2 | 2 | 3 | 3
CC(C)(C)NC(=O)CSc1nc(O)cc(=O)[nH]1 | -4 | 17 | 0 | -3 | 4 | 2 | 5 | 10
O=C(OC1CCOC1=O)c1cccc(S(=O)(=O)Nc2ccc(F)cc2)c1 (stereo not drawn) | 0 | 13 | -4 | 10 | 10 | -6 | 4 | -3
CCc1cccc(C)c1NC(=O)COC(=O)Cc1ccsc1 | -1 | 3 | 0 | 0 | 8 | 1 | 4 | 2
CCCCc1nc(N2CCN(C(=O)c3ccco3)CC2)c(C#N)c2c1CCCC2 | 3 | 21 | -1 | 2 | 2 | 7 | 4 | 2
CC(C)c1cc(C(=O)NNC(=S)NCc2ccco2)c(O)c(C(C)C)c1 | 3 | 0 | 0 | 13 | 18 | 11 | 13 | 5
COc1ccc(C(C)(C)C)cc1NC(=O)c1ccc2ncsc2c1 | -4 | -8 | -3 | 5 | -4 | -6 | -2 | -10
CN(C)S(=O)(=O)c1ccc(S(=O)(=O)Nc2ccc3c(c2)oc2ccccc23)cc1 | -7 | -38 | 2 | 1 | 18 | -8 | 7 | 3
CCOc1ccc(NS(=O)(=O)c2ccc3[nH]cc(C(=O)NCC4CCCO4)c(=O)c3c2)cc1 (stereo not drawn) | -7 | 6 | 2 | 5 | 2 | -8 | -3 | 19
O=C(COc1ccc2cc(Br)ccc2c1)N1CCCC1 | 4 | 27 | -4 | 5 | -2 | 4 | -1 | -1
CCCC(=O)NC(=S)Nc1ccc(S(=O)(=O)Nc2ccc(OCC)cc2)cc1 | -5 | -8 | 2 | -2 | -8 | -11 | 0 | 5
COc1ccc(NS(=O)(=O)c2ccc(N3CCCCC3)c(NC(=O)C(C)NC(N)=O)c2)cc1 (stereo not drawn) | . | 6 | 1 | 3 | 4 | . | 2 | .
New compounds follow
SMILES | LYPLA1 counter | PREPL inhibitor | PAD4 inh | PAFAH1B2 inh | PAFAH2 FP inh | LYPLA2 inh | PAFAH1B3 FP inh | GSTO1 counter
CCN(CC(=O)NCc1cccs1)C(=O)c1cccc(S(=O)(=O)Nc2ccc(C)cc2)c1 | 2 | -3 | -2 | 1 | 8 | 7 | -2 | 6
COc1ccc(NS(=O)(=O)c2ccc(N3CCOCC3)c(NC(=O)C(C)C)c2)cc1 | -1 | 1 | -5 | 1 | -2 | -2 | 3 | 8
CCOC(=O)C1CCN(C(=O)c2oc3ccc4c(c3c2C)C(O)CC2(CCCCC2)O4)CC1 (stereo not drawn) | 2 | -2 | -2 | 2 | 22 | 10 | 7 | 4
Cc1ccc(C)c(S(=O)(=O)N2CCN(c3nc(CN4CCOCC4)nc4sc(C)c(C)c34)CC2)c1 | 0 | 11 | -3 | 2 | -2 | -3 | 9 | .
CCCCCCOc1ccc(N2C(=O)CC(SCCN)C2=O)cc1 (stereo not drawn) | 0 | -11 | 3 | 5 | 17 | 17 | 12 | 1
CCOC(=O)C1CCN(C(=O)c2cccc(NS(=O)(=O)c3ccc(F)c(F)c3)c2)CC1 | 0 | 4 | 0 | -3 | 9 | 11 | 6 | 0
Cc1ccc(Sc2cc(C(=O)c3ccccc3C(=O)O)ccc2[N+](=O)[O-])cc1 | 4 | 0 | 0 | 4 | 17 | 4 | 5 | 3
O=c1c2cn[nH]c2nc(SCc2c(F)cccc2F)n1-c1ccc(Cl)cc1 | -1 | -7 | -5 | 7 | 6 | -5 | 6 | -2
O=S(=O)(Nc1ccc(-c2nnc(SCc3ccc(Cl)cc3)o2)cc1)c1ccccc1 | -17 | -13 | -10 | 28* | -16 | -43 | 2 | -11
Cc1cccc(C(=O)Oc2ccc(/C=N/NC(=O)c3ccccc3O)cc2)c1 | 0 | 15 | 0 | 0 | 1 | -8 | 0 | -6
CCc1ccc(NC(=O)Nc2cc(C(=O)O)ccc2N2CC3CC(C2)c2cccc(=O)n2C3)cc1 (stereo not drawn) | 3 | 4 | 1 | 1 | 18 | 9 | 3 | 4
Cc1nn(-c2ccccc2)c(C)c1NC(=O)COC(=O)[C@@H](NC(=O)c1ccccc1)C(C)C | 2 | 15 | -2 | 0 | -7 | 2 | 4 | 9
COc1ccc(C)cc1NC(=O)c1ccc(NS(=O)(=O)c2cccc3cccnc23)cc1 | -5 | -6 | 0 | -2 | -7 | -13 | 2 | 2
CC(OC(=O)c1cc(S(=O)(=O)Nc2ccc(F)cc2)ccc1Cl)C(=O)Nc1ccc2c(c1)OCCO2 (stereo not drawn) | -5 | 1 | -6 | 2 | -3 | -1 | 8 | -7
Cn1nc(-c2ccccc2)c(CSc2cccc(Cl)c2)c1Cl | 1 | -2 | -1 | -1 | -1 | 4 | 4 | 8
Cc1ccc(OCc2cc(C(=O)N3CCN(C4CCCC4)CC3)no2)cc1C | 0 | 35 | -3 | 4 | 2 | 8 | 9 | -2
Cc1ccc(C)c(NC(=O)COC(=O)CC2CC3CCC2C3)c1 (stereo not drawn) | . | -3 | -6 | 20 | 38* | . | 7 | .
O=C(Nc1ccc(C(F)(F)F)cc1)C1CC(=O)N(c2ccc3c(c2)OCCO3)C1 (stereo not drawn) | 1 | 10 | -4 | 0 | 0 | 7 | 3 | 2
Cc1ccc(NS(=O)(=O)c2cccc(C(=O)N3CCOCC3)c2)cc1 | 0 | -2 | 3 | 2 | -11 | 2 | 5 | 1
COc1ccc(NS(=O)(=O)c2ccc(C)c(C(=O)OC(C)C(=O)N3CCOCC3)c2)cc1 (stereo not drawn) | 2 | 5 | 1 | 2 | 0 | 4 | 1 | 8
C=C(C)CNC(=S)NNC(=O)CCn1c2ccc(Cl)cc2c2cc(Cl)ccc21 | -30 | 3 | -1 | -5 | -12 | -56 | 1 | -13
Cc1c(C)c2c(OCC(=O)NCCCO)cc3c(c2oc1=O)CCC(C)(C)O3 | -3 | 1 | -2 | 9 | 72* | -4 | 4 | 7
CC(C)N(C(=O)/C=C/c1cccc([N+](=O)[O-])c1)C(C)C | 0 | -1 | -2 | 7 | 9 | 0 | 8 | 0
CC(=O)N1CCc2cc(S(=O)(=O)Nc3ccc(C)cc3)ccc21 | 3 | -4 | 2 | 8 | 4 | 2 | 9 | 19
O=C(O)c1cccc(Nc2cc(Cl)c3nonc3c2[N+](=O)[O-])c1 | -1 | 11 | -1 | 4 | 2 | 12 | 12 | -9

Ordered by the number under PAFAH1B2 inh (low to high): five of the compounds above.
molecule,PAFAH1B2 inh
CCOC(=O)C1CCN(C(=O)c2cccc(NS(=O)(=O)c3ccc(F)c(F)c3)c2)CC1,-3
COc1ccc(C)cc1NC(=O)c1ccc(NS(=O)(=O)c2cccc3cccnc23)cc1,-2
Cc1cccc(C(=O)Oc2ccc(/C=N/NC(=O)c3ccccc3O)cc2)c1,0
O=c1c2cn[nH]c2nc(SCc2c(F)cccc2F)n1-c1ccc(Cl)cc1,7
CC(=O)N1CCc2cc(S(=O)(=O)Nc3ccc(C)cc3)ccc21,8

The list continues:
SMILES | LYPLA1 counter | PREPL inhibitor | PAD4 inh | PAFAH1B2 inh | PAFAH2 FP inh | LYPLA2 inh | PAFAH1B3 FP inh | GSTO1 counter
Cc1cc(C(=O)COC(=O)c2ccc(O)cc2)c(C)n1CCc1ccc(F)cc1 | -6 | -18 | -3 | 1 | 22 | -6 | 1 | 11
CCOc1ccccc1NC(=O)c1ccccc1NC(=O)c1ccco1 | -6 | 6 | 0 | 1 | -11 | -5 | 2 | -1
CN(Cc1ccccc1)S(=O)(=O)c1ccc(OCC(=O)N2CCOCC2)cc1 | 4 | 3 | 0 | 1 | 6 | 9 | 3 | 6
CCOC(=O)c1ccc(NC(=O)CC2S/C(=N/N=C/c3c[nH]c4ccccc34)NC2=O)cc1 (stereo not drawn) | -5 | 20 | 0 | 2 | -5 | -4 | 6 | 1
COc1ccc(CC(=O)Nc2sc(Cc3ccccc3)c(C)c2C(N)=O)cc1 | 0 | 7 | -5 | 1 | -8 | -1 | 4 | -6
CC1(OC(=O)C2CCCC2)C(=O)C=C2C=C(c3ccsc3)OC=C2C1=O (stereo not drawn) | -2 | -1 | -15 | -2 | 8 | -5 | 7 | 33

Full records as entered above. Order of values: LYPLA1 counter | PREPL inhibitor | PAD4 inh | PAFAH1B2 inh | PAFAH2 FP inh | LYPLA2 inh | PAFAH1B3 FP inh | GSTO1 counter
`CN(Cc1ccccc1)S(=O)(=O)c1ccc(OCC(=O)N2CCOCC2)cc1` in the list: 4 | 3 | 0 | 1 | 6 | 9 | 3 | 6
`CC1(OC(=O)C2CCCC2)C(=O)C=C2C=C(c3ccsc3)OC=C2C1=O` (stereo not drawn) in the list: -2 | -1 | -15 | -2 | 8 | -5 | 7 | 33
`CCOc1ccccc1NC(=O)c1ccccc1NC(=O)c1ccco1` in the list: -6 | 6 | 0 | 1 | -11 | -5 | 2 | -1
`CCOC(=O)c1ccc(NC(=O)CC2S/C(=N/N=C/c3c[nH]c4ccccc34)NC2=O)cc1` (stereo not drawn) in the list: -5 | 20 | 0 | 2 | -5 | -4 | 6 | 1

Source: PubChem

Not all compounds are listed; count on the stated rates, not on these rows.
